RecA intein inh – Mtb RecA intein splicing inhibition. cell-free RecA intein splicing, fluorescence. inhibition, %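 (about 9 µM by stock and volumes)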. hit rate 0.75% among 290,000. P9WHJ3. AID 2221; in the data active = inhibition above about 30%; inconclusive = no clear call, values can overlap the other calls;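 also: 0% = vehicle wells and 100% = reference inhibitor control wells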
Target sequence (P9WHJ3 whole entry, looked up): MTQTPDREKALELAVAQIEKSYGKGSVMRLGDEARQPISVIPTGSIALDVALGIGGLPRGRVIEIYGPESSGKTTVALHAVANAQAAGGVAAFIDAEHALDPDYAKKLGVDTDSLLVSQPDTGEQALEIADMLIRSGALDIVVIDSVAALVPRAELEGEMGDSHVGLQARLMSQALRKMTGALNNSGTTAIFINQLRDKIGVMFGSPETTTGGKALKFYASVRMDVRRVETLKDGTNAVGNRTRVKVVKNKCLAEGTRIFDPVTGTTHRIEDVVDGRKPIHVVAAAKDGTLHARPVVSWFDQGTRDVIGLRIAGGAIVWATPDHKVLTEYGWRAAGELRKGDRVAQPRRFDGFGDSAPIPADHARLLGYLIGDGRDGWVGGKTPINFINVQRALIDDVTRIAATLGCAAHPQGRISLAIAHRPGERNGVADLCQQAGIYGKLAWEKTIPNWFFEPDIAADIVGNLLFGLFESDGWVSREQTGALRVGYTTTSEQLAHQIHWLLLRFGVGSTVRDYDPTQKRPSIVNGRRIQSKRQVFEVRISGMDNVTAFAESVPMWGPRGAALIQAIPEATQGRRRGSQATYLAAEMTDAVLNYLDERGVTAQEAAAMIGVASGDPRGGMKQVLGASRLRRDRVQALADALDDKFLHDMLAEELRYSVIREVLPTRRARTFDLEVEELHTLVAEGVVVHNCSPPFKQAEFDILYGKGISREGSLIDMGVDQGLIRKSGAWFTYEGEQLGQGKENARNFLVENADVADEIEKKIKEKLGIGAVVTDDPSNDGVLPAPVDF
YopH inh – YopH (Yersinia) phosphatase inhibition | fluorescence Ex485/Em525 | hit rate 0.16% among 140,000 | AID 898 | inhibition, %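 (about 10 µM by stock and volumes)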;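 active = inhibition of 50% or more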;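 also: controls were vehicle for no effect and minimum signal wells for full effect; inactives centre near -20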
Mtb bLac sens – beta-lactam sensitization of Mtb H37Rv. M. tuberculosis H37Rv growth with meropenem, percent inhibition; hits of this screen are not shown here. inhibition, % at 25 µM. hit rate 0.27% among 330,000;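 active = about 74% or more and at least 40 points above the plate without the antibiotic, then above 30% in a dose series; inconclusive = first-round hits that could not be retested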;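 also: growth measured after seven days incubation then overnight dye step; 0% = bacteria only wells and 100% = bacteria with antibiotic; twin plates without the antibiotic show which effects depend on it; some results filed as inactive read as strong as hits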
Arbovirus inh – antivirals against arbovirus infection; arbovirus infection cell-based antiviral screen; inhibition, % at 10 µM; hit rate 0.37% among 200,000; AID 1251;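 active = inhibition from about 30%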;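 also: bluetongue infection of BSR cells; cell survival read as ATP light after 72 h; 0% = infected wells without compound and 100% = uninfected wells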
Mtb growth – M. tuberculosis H37Rv growth inhibitors, H37Rv strain (AID 1626); M. tuberculosis H37Rv growth inhibition; higher % means a stronger effect; inhibition, % at 10 µM; hits with a dose series show IC50 in µM; hit rate 0.95% among 220,000;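 active = confirmed in a dose series; inconclusive = inhibition above 80% but not taken into the dose series; inactive = below 80% or under 30% at every dose of the series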;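 also: bacteria incubated seven days before Alamar blue readout; 0% = bacteria only wells and 100% = bacteria with antibiotic wells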
Arbovirus inh repeat – also measured in Arbovirus inh; calls as there; inhibition, %; measured here: 10K subset replicate screen; many hits read low in the repeat;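 first of two repeat runs on a subset; 0% = infected and 100% = uninfected wells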
Numbers without * were called inactive. The list is partial; count on the stated rates, not on these rows.

For COC(=O)c1ccc(NC(=O)CN(C)Cc2cccc(F)c2)cc1 the results were RecA intein inh 2.8, Mtb bLac sens -2, Arbovirus inh 8 and Mtb growth -4%.
`CCSc1nc(N2CCOCC2)c2ccccc2n1` gave RecA intein inh -1.0, YopH inh -36, Mtb bLac sens -4 and Arbovirus inh 15.
Screening O=C(Nc1ccc(N2CCOCC2)cc1)c1ccc2nc(-c3ccco3)c(-c3ccco3)nc2c1 returned RecA intein inh 7.2, YopH inh -9, Mtb bLac sens 11, Arbovirus inh -9 and Mtb growth -4%.
Screening O=C(CN1C(=O)c2ccccc2S1(=O)=O)NC1CCCCCC1 returned YopH inh -44, Mtb bLac sens 0, Arbovirus inh -2, Mtb growth -11% and Arbovirus inh repeat 4.
`Nc1nc(SCC(=O)NCc2ccc(F)cc2)[nH]c(=O)c1NC(=O)c1ccc(Cl)cc1` gave RecA intein inh -0.6, YopH inh -12, Mtb bLac sens -12, Arbovirus inh -11 and Mtb growth -4%.
For CCOc1ccccc1N1CCN(CC(=O)Nc2ncc(C)s2)CC1 the results were RecA intein inh -2.0 and Mtb bLac sens 0.
Cc1ccc(Nc2ccc(C(N)=O)cc2[N+](=O)[O-])cc1 was read as RecA intein inh 2.4, YopH inh -25, Mtb bLac sens 1, Arbovirus inh -12 and Mtb growth 1%.
For Cc1ccc(NC(=O)CCn2c(=O)c3cccn3c3ccccc32)cc1C the results were RecA intein inh -5.0 and Mtb bLac sens -5.
CC(=O)NC(CC(=O)NCC(=O)Nc1ccc(F)c(F)c1)c1ccccc1 (configuration not stated) was read as RecA intein inh -0.3 and Mtb bLac sens -6.
c1ccc(Nc2cccc(Nc3ccccc3)c2)cc1 was read as RecA intein inh 11, YopH inh -3, Mtb bLac sens 12, Arbovirus inh -1 and Mtb growth 16%.
For O=C(c1ccccc1)N1CCC(=O)N(C(CO)Cc2ccccc2)CC1 (configuration not stated) the results were RecA intein inh 1.4, Mtb bLac sens -2 and Mtb growth 7%.
For COc1ccc2c(c1)c1nnc(SCC(=O)N3C(C)CCCC3C)nc1n2C (configuration not stated) the results were RecA intein inh 1.0, YopH inh -1, Mtb bLac sens 2, Arbovirus inh -9 and Mtb growth -10%.
For CCc1ccc(C2C3=C(CCCC3=O)OC3=C2C(=O)CCC3)cc1 the results were RecA intein inh 8.8, YopH inh -20, Mtb bLac sens 6, Arbovirus inh 1 and Mtb growth -1%.
`CCOC(=O)C1CCCN(Cc2nc(N)nc(Nc3ccc(C)cc3)n2)C1` (configuration not stated) gave RecA intein inh -0.3, YopH inh -26, Mtb bLac sens 74, Arbovirus inh 5 and Mtb growth 4%.
CSc1nsc(SCC(=O)NCc2ccccc2)n1 was read as RecA intein inh 0.1 and Mtb bLac sens 51.
For Cc1c(OC(C)C(=O)NCc2cccnc2)ccc2c3c(c(=O)oc12)CCCC3 (configuration not stated) the results were RecA intein inh 0.2 and Mtb bLac sens 99.
COC(=O)c1sc(-c2ccccc2)cc1NC(C)=O was read as RecA intein inh -1.6, Mtb bLac sens 7, Arbovirus inh 9 and Mtb growth 2%.
`CCOc1ccc(OC(=O)c2cccnc2)cc1` gave RecA intein inh 0.3, YopH inh -13, Mtb bLac sens -2, Arbovirus inh -15 and Mtb growth 1%.
For O=C(Cn1c(=O)oc2cccnc21)Nc1ccc(C(F)(F)F)cc1 the results were RecA intein inh -1.7, Mtb bLac sens -10 and Mtb growth 6%.
For Cc1ccc(C(=O)C2=C(O)C(=O)N(c3ncccn3)C2c2ccc(Br)cc2)o1 (configuration not stated) the results were RecA intein inh -1.4, Mtb bLac sens -4 and Mtb growth -3%.

Quoted from the listing for reference:
For O=C(c1ccccc1)N1CCC(=O)N(C(CO)Cc2ccccc2)CC1 (configuration not stated) the results were RecA intein inh 1.4, Mtb bLac sens -2 and Mtb growth 7%.
For COc1ccc2c(c1)c1nnc(SCC(=O)N3C(C)CCCC3C)nc1n2C (configuration not stated) the results were RecA intein inh 1.0, YopH inh -1, Mtb bLac sens 2, Arbovirus inh -9 and Mtb growth -10%.
For CCc1ccc(C2C3=C(CCCC3=O)OC3=C2C(=O)CCC3)cc1 the results were RecA intein inh 8.8, YopH inh -20, Mtb bLac sens 6, Arbovirus inh 1 and Mtb growth -1%.
`CCOC(=O)C1CCCN(Cc2nc(N)nc(Nc3ccc(C)cc3)n2)C1` (configuration not stated) gave RecA intein inh -0.3, YopH inh -26, Mtb bLac sens 74, Arbovirus inh 5 and Mtb growth 4%.
CSc1nsc(SCC(=O)NCc2ccccc2)n1 was read as RecA intein inh 0.1 and Mtb bLac sens 51.
For Cc1c(OC(C)C(=O)NCc2cccnc2)ccc2c3c(c(=O)oc12)CCCC3 (configuration not stated) the results were RecA intein inh 0.2 and Mtb bLac sens 99.
COC(=O)c1sc(-c2ccccc2)cc1NC(C)=O was read as RecA intein inh -1.6, Mtb bLac sens 7, Arbovirus inh 9 and Mtb growth 2%.
`CCOc1ccc(OC(=O)c2cccnc2)cc1` gave RecA intein inh 0.3, YopH inh -13, Mtb bLac sens -2, Arbovirus inh -15 and Mtb growth 1%.
For O=C(Cn1c(=O)oc2cccnc21)Nc1ccc(C(F)(F)F)cc1 the results were RecA intein inh -1.7, Mtb bLac sens -10 and Mtb growth 6%.
For Cc1ccc(C(=O)C2=C(O)C(=O)N(c3ncccn3)C2c2ccc(Br)cc2)o1 (configuration not stated) the results were RecA intein inh -1.4, Mtb bLac sens -4 and Mtb growth -3%.

The listing continues.
Screening Cc1ccc(-n2c(Cc3cccn3C)nnc2SCC(=O)NCc2ccc3c(c2)OCO3)cc1 returned RecA intein inh 0.5, YopH inh -23, Mtb bLac sens 4, Arbovirus inh -2 and Mtb growth 8%.
C=CCn1cccc(C(=O)Nc2cc(OC)ccc2OC)c1=O was read as RecA intein inh -4.0, Mtb bLac sens 1, Arbovirus inh 15 and Mtb growth 0%.
COc1cccc(C2CC(c3ccc(F)cc3)Nc3nc(N)nn32)c1 (configuration not stated) was read as RecA intein inh -1.9, YopH inh -26, Mtb bLac sens inconclusive, Arbovirus inh 10, Mtb growth -7% and Arbovirus inh repeat 2.
Screening CCN(CC)CCNC(=O)c1cn(CC)c2ccc(S(=O)(=O)N3CCOCC3)cc2c1=O returned RecA intein inh -0.6 and Mtb bLac sens -6.
`CCOc1ccccc1N1CCN(CC(=O)N(CC(C)C)c2c(N)n(CC(C)C)c(=O)[nH]c2=O)CC1` gave RecA intein inh -1.5, Mtb bLac sens 1, Arbovirus inh 1 and Mtb growth 0%.
`CCOc1ccc(Nc2nc(-c3cccnc3)cs2)cc1` gave RecA intein inh 0.2 and Mtb bLac sens 10.
For Cc1ccc(NC(=O)C(=O)NC(C)C2COc3ccccc3O2)cc1 (configuration not stated) the results were RecA intein inh 0.0, YopH inh -24, Mtb bLac sens 4, Arbovirus inh 3 and Mtb growth -1%.
Screening COc1cc(C(=O)N2CCC(NC(=O)C(Cc3ccc(C)cc3)NC(C)=O)CC2)cc(OC)c1OC (configuration not stated) returned RecA intein inh 2.7, YopH inh -9, Mtb bLac sens -14, Arbovirus inh 1 and Mtb growth -2%.
Cn1ncc(Cl)c1C(=O)NCc1ccc2c(c1)OCO2 was read as RecA intein inh -4.5 and Mtb bLac sens 4.
`CCOc1ccccc1NC1c2ccccc2C(=O)N1c1ccc(C)cn1` (configuration not stated) gave RecA intein inh 1.4, Mtb bLac sens -5, Arbovirus inh -2, Mtb growth 14% and Arbovirus inh repeat -4.
Screening O=C(CSc1nc2ccccc2s1)Nc1ncccn1 returned RecA intein inh -3.0, YopH inh -25, Mtb bLac sens -3, Arbovirus inh -2 and Mtb growth 4%.
`O=[N+]([O-])c1ccc(C2=Nc3cc(Cl)ccc3OC2)cc1` gave RecA intein inh -4.7, Mtb bLac sens 0, Arbovirus inh -5 and Mtb growth 1%.
Screening O=c1cc(O)c2sc3nc(C(F)(F)F)c4c(c3c2[nH]1)CCCCC4 returned RecA intein inh 5.5, Mtb bLac sens 3, Arbovirus inh 27 and Mtb growth -1%.
Cc1ccc(C2(C)NC(=O)N(CC(=O)Nc3cc(S(=O)(=O)N(C)C)ccc3C)C2=O)cc1 (configuration not stated) was read as RecA intein inh -1.6 and Mtb bLac sens 1.
`Cc1nc(SCC(=O)N2CCC(C(N)=O)CC2)n[nH]1` gave RecA intein inh -1.6, YopH inh 36, Mtb bLac sens 3, Arbovirus inh 10 and Mtb growth 4%.
O=C(OC(C(=O)NC1CCCCC1)c1ccccc1)c1ccco1 (configuration not stated) was read as RecA intein inh 0.4, YopH inh -14, Mtb bLac sens 0, Arbovirus inh 4 and Mtb growth -10%.
`Cc1c(C(=O)Nc2ccc3c(c2)OCO3)sc2ncn(CC(=O)N3CC(C)CC(C)C3)c(=O)c12` (configuration not stated) gave RecA intein inh 1.2, YopH inh 7, Mtb bLac sens -1, Arbovirus inh -5 and Mtb growth 2%.
`COc1ccc(C(=O)Nc2cccc(-c3ccc(N4CCOCC4)nn3)c2)cc1OC` gave RecA intein inh 1.2 and Mtb bLac sens -5.
CCOc1cc(N)c(Cl)cc1C(=O)NCC1CN(Cc2ccc(F)cc2)CCO1 (configuration not stated) was read as RecA intein inh -1.1, Mtb bLac sens 14 and Mtb growth -1%.
Screening CC1Cc2nc(SCC(=O)NCC3CCCO3)n(Cc3ccccc3)c(=O)c2S1 (configuration not stated) returned RecA intein inh -3.0, YopH inh -9, Mtb bLac sens 3, Arbovirus inh 6 and Mtb growth 11%.
Cc1ccc(-c2c[n+](CC(=O)Nc3ccc(C)cc3C)c3n2CCC3)cc1 was read as RecA intein inh 0.4, Mtb bLac sens -2 and Mtb growth 2%.
`COc1cc(CO)c(Br)cc1OCC(=O)Nc1ccccc1C` gave RecA intein inh -1.7, Mtb bLac sens -3, Arbovirus inh 6 and Mtb growth 5%.
`CC(=O)N1N=C(c2cccc([N+](=O)[O-])c2)OC1(C)CC(=O)Nc1ccccc1` (configuration not stated) gave RecA intein inh 1.6, YopH inh -11, Mtb bLac sens 8, Arbovirus inh 2 and Mtb growth 3%.
N#CCCN(C(=O)COC(=O)c1ccc(S(=O)(=O)Nc2ccccc2)cc1)c1ccccc1 was read as RecA intein inh -0.1, YopH inh -33, Mtb bLac sens 4, Arbovirus inh 8 and Mtb growth 2%.
O=C1Nc2c(Br)cc(Br)cc2C1(O)N1CCOCC1 (configuration not stated) was read as RecA intein inh 0.7, YopH inh -37, Mtb bLac sens 6, Arbovirus inh 3 and Mtb growth -6%.
Cn1c(=O)c2nc(Cl)c(-c3ccccc3)nc2n(C)c1=O was read as RecA intein inh -4.9, YopH inh -24, Mtb bLac sens -1, Arbovirus inh -6 and Mtb growth -5%.
CC1CC(C)CN(S(=O)(=O)c2ccc(F)c(C(=O)Nc3ccc(Cl)cc3F)c2)C1 (configuration not stated) was read as RecA intein inh -0.5, YopH inh -12, Mtb bLac sens 4, Arbovirus inh -7 and Mtb growth -2%.
Screening COc1ccc(S(=O)(=O)NCC2CCCO2)cc1C(=O)O (configuration not stated) returned RecA intein inh -1.2 and Mtb bLac sens 5.
Screening CN1CCC(NC(=O)c2cccs2)CC1 returned RecA intein inh -1.6, YopH inh -21, Mtb bLac sens -8, Arbovirus inh 2, Mtb growth 0% and Arbovirus inh repeat 8.
For Cc1ccccc1C(=O)N[C@H](C(=O)Nc1ccc(Cl)c(Cl)c1)C(C)C the results were RecA intein inh -3.0, YopH inh -15, Mtb bLac sens -4, Arbovirus inh 9 and Mtb growth -1%.
Screening CCCC(=O)c1cc2cc(Cl)ccc2oc1=O returned RecA intein inh 0.3, YopH inh -18, Mtb bLac sens 95, Arbovirus inh 9 and Mtb growth inconclusive.
COc1ccc(CNC(=O)CSc2nc3nc(C)cc(C)n3n2)cc1 was read as RecA intein inh -1.0, YopH inh -51, Mtb bLac sens -7 and Arbovirus inh 0.
For CCN(c1ccccc1)S(=O)(=O)c1ccc2c(c1)C(C)(C)C(=O)N2C the results were RecA intein inh 1.7 and Mtb bLac sens 3.
For COc1cccc(CC(=O)OC(C)C(=O)Nc2ccc(N3CCOCC3)cc2)c1 (configuration not stated) the results were RecA intein inh 0.4 and Mtb bLac sens 0.
Cc1ccc2c(c1)N(CC(=O)N(Cc1ccc3c(c1)OCO3)CC1CCCO1)C(=O)C(C)O2 (configuration not stated) was read as RecA intein inh 1.0, YopH inh -27, Mtb bLac sens -2, Arbovirus inh -9 and Mtb growth -2%.
`CCCCN(CC)CCNC(=O)c1cc2c(=O)[nH]c3ccccc3c2n1C` gave RecA intein inh -1.7, Mtb bLac sens 6, Arbovirus inh -3 and Mtb growth 7%.

Compound activity deposited in PubChem BioAssay by several laboratories.
